HCMV UL50-53 inh = cytomegalovirus nuclear egress complex inhibition; inhibition, % (no concentration beside the values); 0.15% of 190,000 active; AID 1918969; HTRF UL50-UL53 interaction, normalized percent inhibition;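 active = both replicates at 50% or more, plus weaker picks with an unusually low signal ratio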;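 also: stock transfer was 100 nL into about 20 µL; 0% = negative control wells and 100% = wells with untagged competitor protein; inactives centre near -12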
Sa growth 42C = S. aureus growth inhibition. S. aureus RN4220 growth, OD600, 20 h, 42 °C; stronger effect = lower value. relative growth, % (concentration not given with the values). 0.53% of 170,000 active;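 active = growth at 42 °C up to 50% and 20 or more points under that at 30 °C, or under 10% at both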;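 also: 300 nL library stock went into each well; scaled to the means of positive and negative controls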
GIV-Gai inh = inhibitors of GIV GBA-motif binding to rat Galpha-i3 | P08753 | Galpha-i3/FITC-GIV peptide fluorescence polarization, 90 min; stronger effect = lower value; scaled: aluminum fluoride 0%, vehicle 100% | percent of control (FP), % (concentration not given with the values) | 0.42% of 210,000 active | AID 1224905;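 active = replicate mean at 85% of control or lower, very high polarization wells dropped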;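 also: wells of about 15 µL received 100 nL stock; the first replicate is given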
Target sequence (P08753 whole entry, looked up): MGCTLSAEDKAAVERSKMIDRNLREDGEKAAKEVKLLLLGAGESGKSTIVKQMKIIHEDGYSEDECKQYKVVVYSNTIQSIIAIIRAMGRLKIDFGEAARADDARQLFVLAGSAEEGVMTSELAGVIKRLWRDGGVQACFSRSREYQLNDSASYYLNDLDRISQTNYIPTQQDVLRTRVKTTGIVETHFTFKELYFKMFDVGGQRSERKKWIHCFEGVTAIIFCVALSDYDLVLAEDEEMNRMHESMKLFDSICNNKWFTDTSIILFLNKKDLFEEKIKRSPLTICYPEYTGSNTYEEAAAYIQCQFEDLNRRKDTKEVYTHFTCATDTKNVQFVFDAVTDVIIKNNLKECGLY
Sa growth 42C second temp = recorded beside Sa growth 42C, whose call it bears; relative growth, %; measured here: growth at 30 °C;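 optical density after 20 h as mean of two plates; 100% = untreated growth and lower means inhibition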
* = called active by the depositor; . = not tested or not shown; & = joins results of further samples.

Letter code: A = HCMV UL50-53 inh; B = Sa growth 42C; C = Sa growth 42C second temp; D = GIV-Gai inh
Cc1ccc(NS(=O)(=O)c2ccc3c(c2)NC(=O)CCS3)cc1C
  A = .	B = 104.6	C = 78.5	D = 103.6
CCOc1ccc(C(=O)CNC2=NCCC2)cc1
  A = -31.1	B = 114.9	C = 87.0	D = .
CCOC(=O)c1sc(N(Cc2nc(-c3cccc(Cl)c3)oc2C)C(C)=O)c(C#N)c1C
  A = -10.8	B = 94.5	C = 88.2	D = 103.2
CCOC(=O)c1cc(C#N)c(=S)[nH]c1O
  A = -45.0	B = 78.9	C = 84.5	D = .
Fc1ccc(NC2=NCCCCC2)c(F)c1F
  A = 2.3	B = 98.8	C = 97.0	D = .
CCN1CCN(CCC(=O)Nc2ccc(-c3ccccc3)cc2)CC1
  A = -30.0	B = 96.3	C = 89.9	D = .
CCCCSc1ncnc2c1sc1nc(N3CCOCC3)c3c(c12)CCCC3
  A = -11.1	B = 83.4	C = 93.6	D = 101.2
CC(=O)Nc1ccc(C2C3=C(Nc4c2c(=O)[nH]c(=O)n4Cc2ccccc2)c2ccccc2C3=O)cc1 (stereo not given)
  A = -74.8	B = 96.0	C = 67.2	D = 98.3
Cc1cc2n(n1)CCC(=O)N2CCCC(=O)NCc1ccccc1
  A = -7.6	B = .	C = .	D = 102.8
O=C(CN1CCCN(Cc2ccc(F)cc2Cl)C1=O)NC1CCCCCC1
  A = .	B = 110.0	C = 89.1	D = 106.8
N#Cc1ccccc1NC(=O)Nc1ccccc1
  A = 2.8	B = 110.5	C = 99.2	D = 102.3
CC1CCC/C(=C(/C#N)c2nc(-c3ccccc3O)cs2)C1 (stereo not given)
  A = -5.9	B = 115.3	C = 83.7	D = 103.7
CCOc1cc(C(=O)N2CC(=O)Nc3ccc(C)cc3C2c2ccccc2)cc(OCC)c1OCC (stereo not given)
  A = 7.2	B = 89.1	C = 104.7	D = 101.2
COC(=O)c1ccc2c(c1)N(C)CCS2
  A = 1.6	B = 107.4	C = 96.8	D = 96.1&100.5
Clc1nc(Nc2ccccc2)sc1/C=N/n1cnnc1
  A = -53.2	B = 84.2	C = 94.1	D = .
Cc1ccc(S(=O)(=O)N(C)CC(=O)NCc2nc(-c3cccc(C)c3)no2)cc1
  A = .	B = 84.9	C = 92.6	D = 120.2
O=C(OC1CCOC1=O)C1CCN(C(=O)Nc2ccccc2)CC1 (stereo not given)
  A = -35.1	B = 89.5	C = 86.1	D = .
COc1cccc(C2C3=C(CC(C)(C)CC3=O)Nc3[nH]c(=O)[nH]c(=O)c32)c1 (stereo not given)
  A = -19.8	B = 87.6	C = 76.0	D = 99.6
COc1ccc(OC)c(CCNC(=O)C(C)n2nc(C)c3c(C)n(-c4ccc(C)cc4)nc3c2=O)c1 (stereo not given)
  A = .	B = 106.2	C = 87.0	D = 102.2
O=c1cc(CSc2ncccn2)c2cc3c(cc2o1)CCC3
  A = -15.6	B = 82.6	C = 94.4	D = .
COc1ccc(CCn2c(=O)c3ccccc3n(CC(=O)N(C)c3ccccc3)c2=O)cc1OC
  A = .	B = 118.0	C = 80.8	D = 99.6
COC(=O)c1cc(S(N)(=O)=O)c(C)o1
  A = -38.2	B = 99.9	C = 101.1	D = 100.0
Cc1ccc(NC(=O)C(C)C)cc1
  A = -16.9	B = 103.5	C = 85.3	D = 96.6
CC(=O)c1cccc(NC(=O)c2cc(-c3ccc(Cl)s3)nc3ccccc23)c1
  A = -17.5	B = 110.8	C = 95.2	D = 106.0
COc1ccccc1NCC(=O)n1nc(-c2ccccc2)cc1-c1ccccc1
  A = -9.7	B = 80.0	C = 76.4	D = .
COc1cccc(C2C3=C(CC(c4ccc(OC)c(OC)c4)CC3=O)Nc3onc(C)c32)c1 (stereo not given)
  A = 4.4	B = .	C = .	D = 111.4
CCCCc1ccc(S(=O)(=O)NC2CCS(=O)(=O)C2)cc1 (stereo not given)
  A = 2.9	B = 102.0	C = 87.2	D = 108.8
COc1ccc(CCNC(=O)c2cc(-c3ccc(C)cc3)n[nH]2)cc1OC
  A = -17.7	B = .	C = .	D = 103.3
N#Cc1cc(Oc2ccccc2Cl)c(-n2nnc3ccccc32)cc1C#N
  A = 3.3	B = 121.0	C = 105.7	D = 97.5
CC1CN(CC(=O)NC(=O)NC(C)(C)C)CC(C)O1 (stereo not given)
  A = 5.3	B = 93.3	C = 92.0	D = .
Cc1ccc(S(=O)(=O)NCCC(=O)N2CCCCC2)cc1
  A = 14.1	B = 87.2	C = 96.0	D = .
Cc1ccc(Cl)cc1NC(=O)Cn1c(=O)n(Cc2ccc(C(=O)NCc3ccc4c(c3)OCO4)cc2)c(=O)c2ccccc21
  A = -10.6	B = 105.4	C = 74.8	D = 105.1
CC(=O)c1ccc(NC(=O)c2ccc(-n3cnnc3)cc2)cc1
  A = .	B = 104.4	C = 89.1	D = 104.8
CC(=O)OC1CC(c2ccccc2)N(C(C)=O)C(c2ccccc2)C1c1ccccc1 (stereo not given)
  A = 9.6	B = 97.8	C = 94.5	D = 101.5
O=C(OCc1cc(=O)oc2cc(O)ccc12)c1cc(S(=O)(=O)N2CCOCC2)ccc1F
  A = 10.0	B = 83.0	C = 91.7	D = .
COc1ccc(NCC(=O)N2CCCC2)cc1Cl
  A = 1.6	B = 84.8	C = 102.5	D = .
CN(Cc1ccccc1)c1nnc(NC(=O)NCc2ccccc2)s1
  A = .	B = 99.4	C = 88.9	D = 101.7
Cc1cc2cc(OCC(=O)O)ccc2n1C
  A = -7.6	B = 87.5	C = 85.8	D = 101.7
CC(C)(C)c1ccc(-c2nc3scc(-c4ccccc4)c3c(=O)o2)cc1
  A = 2.5	B = .	C = .	D = 101.8
CCOC(=O)c1nc(Nc2cc(Cl)c(OC)cc2OC)c2ccccc2n1
  A = 5.8	B = .	C = .	D = 105.5
Cn1cc(S(=O)(=O)N2CCOCC2)cc1C(=O)Nc1cccc(C#N)c1
  A = .	B = 84.6	C = 87.5	D = 98.4
O=C(C1CCN(c2ncnc3c2nc2n3CCCCC2)CC1)N1CCN(c2ccc(Cl)cc2)CC1
  A = .	B = 86.0	C = 88.9	D = 103.0
O=C(/C=C/c1ccc(Br)s1)Nc1ccc(-n2cnnn2)cc1
  A = -17.5	B = 88.9	C = 78.5	D = .
CCc1nc2ccc(C(=O)N3CCCCCC3)cc2nc1CC
  A = -41.7	B = 61.8	C = 86.3	D = .
COc1ccc(Nc2ncc3c(n2)CCN(Cc2cccc(F)c2F)C3)c(OC)c1
  A = .	B = 89.2	C = 91.8	D = 102.6
CC1Cc2ccccc2N1C(=O)COc1ncnc2ccccc12 (stereo not given)
  A = -11.7	B = 96.4	C = 88.9	D = .
CC(=O)N1CCN(c2nc(N3CCCCC3)nc(N3CCCCC3)n2)CC1
  A = -5.2	B = 106.9	C = 82.2	D = 102.0
O=C(NCc1cccs1)c1ccc2c(c1)N(Cc1cccc(F)c1)C(=O)c1ccccc1S2
  A = .	B = 113.0	C = 91.4	D = 107.4
Cc1nc2sccn2c1-c1nc(-c2ccccc2)cs1
  A = -35.1	B = 80.8	C = 75.8	D = .
CCCCNS(=O)(=O)c1ccc2nc(NC(=O)c3cccnc3)sc2c1
  A = .	B = 78.3	C = 80.6	D = 95.1

(cont.)
Letter code: A = HCMV UL50-53 inh; B = Sa growth 42C; C = Sa growth 42C second temp; D = GIV-Gai inh
COc1ccc(C2C(C(=O)N3CCN(c4ccccn4)CC3)CCC(=O)N2c2cc(OC)c(OC)c(OC)c2)cc1 (stereo not given)
  A = 4.5	B = 87.2	C = 95.9	D = 101.3
COc1ccc(COc2cccnc2N)cc1
  A = 1.4	B = 111.5	C = 98.2	D = 106.7
Cc1cccc(N2CCN(c3nc4ccccc4c(=O)n3-c3ccc(Cl)cc3)CC2)c1C
  A = -32.5	B = 101.3	C = 91.8	D = 102.8
CCC(=O)N1c2ccc(S(=O)(=O)N3CCN(c4ccccc4Cl)CC3)cc2CC1C (stereo not given)
  A = -16.7	B = 124.8	C = 113.4	D = 101.5
Cc1cc(Oc2ccccc2)nc2ccc(O)cc12
  A = 5.1	B = 94.6	C = 60.7	D = 107.6
Cn1c2ccccc2c2cnn(CC(=O)N3CCCCC3)c(=O)c21
  A = 2.7	B = 94.7	C = 94.4	D = 99.0
Cc1ccccc1NS(=O)(=O)c1ccc2c(c1)c(=O)n(C)c(=O)n2C
  A = .	B = 59.2	C = 68.4	D = 102.0
Cc1c(C(=O)/C=C/N(C)C)nnn1-c1ccccc1
  A = -32.0	B = 112.2	C = 85.1	D = 106.1
COc1ccc(NC(=O)N2CCN(Cc3nc4cccnc4n3-c3cc(C)cc(C)c3)CC2)cc1OC
  A = -12.6	B = .	C = .	D = 103.4
O=C(NCc1cccnc1)N(c1ccccc1)c1ccccc1
  A = -36.2	B = 91.2	C = 78.2	D = 103.6
CSc1ccc(CCNC(=O)C2=C(C)C(=O)OC23CCCCC3)cc1
  A = -19.5	B = 105.7	C = 96.2	D = 101.8
CCOc1cc(C2C(C(=O)OCCOC)=C(C)NC3=C2C(=O)CC(c2ccc(OC)cc2)C3)ccc1O (stereo not given)
  A = -73.1	B = .	C = .	D = 101.3
COc1ccc(N2CCN(C(=O)CSc3ccc(S(=O)(=O)N(C)C)cn3)CC2)cc1
  A = -32.9	B = 70.0	C = 88.3	D = .
O=C(Nc1cccc(F)c1)N1CCN(Cc2ccccc2)CC1
  A = -16.6	B = 86.6	C = 94.5	D = 95.7
CCN(CC)c1ccc(/C=C2/SC(=O)N(CNc3ccccc3OC)C2=O)cc1
  A = -15.6	B = .	C = .	D = 102.8
CS(=O)(=O)CCC(C(=O)N1CCCC1)N1Cc2ccccc2C1=O (stereo not given)
  A = -28.8	B = 99.0	C = 88.3	D = 99.6
C=CCc1ccc(OCCn2c(C(O)CCC)nc3ccccc32)c(OC)c1 (stereo not given)
  A = -18.5	B = .	C = .	D = 108.0
Cc1ccc2c(c1)N(CC(=O)NC1CCCC(C)C1C)C(=O)c1cccnc1O2 (stereo not given)
  A = .	B = 187.7	C = 96.8	D = 101.6
COc1ccc(CNCCC(c2ccc(C)cc2)c2ccco2)cc1 (stereo not given)
  A = 9.9	B = 114.8	C = 84.2	D = 111.7
Cc1cc(N2CCN(c3ccccc3)CC2)n2nc(-c3ccccc3)cc2n1
  A = .	B = 92.4	C = 86.9	D = 106.0
CN(C)CCNC(=O)C12CC3(C)CC(C)(CC(C)(C3)C1)C2
  A = .	B = 96.2	C = 94.2	D = 101.8
COc1ccc(S(=O)(=O)NC(C)C(=O)NCC2CCCO2)cc1Cl (stereo not given)
  A = .	B = 95.9	C = 79.0	D = 104.0
COc1ccc(C2OC(=O)CC2C(=O)NC2CCCC2)cc1OC (stereo not given)
  A = .	B = 84.9	C = 83.2	D = 101.2
O=C1CC2(CCCC2)C(=O)N1c1ccc(Br)cc1
  A = .	B = 112.0	C = 87.7	D = 101.1
CN(c1ccc(F)cc1)S(=O)(=O)N1CCCC(C(=O)NCCc2ccccc2)C1 (stereo not given)
  A = .	B = 82.6	C = 85.8	D = 115.2
CC1=CC(C)C(C2OCC(C)CO2)C(C)C1 (stereo not given)
  A = -41.5	B = 90.8	C = 87.4	D = .
O=c1c2cc(NC(=S)N3CCCC3)ccc2nc2n1CCCCC2
  A = .	B = 106.9	C = 93.0	D = 102.1

Four neighbouring records from above:
Letter code: A = HCMV UL50-53 inh; B = Sa growth 42C; C = Sa growth 42C second temp; D = GIV-Gai inh
O=C1CC2(CCCC2)C(=O)N1c1ccc(Br)cc1
  A = .	B = 112.0	C = 87.7	D = 101.1
CN(c1ccc(F)cc1)S(=O)(=O)N1CCCC(C(=O)NCCc2ccccc2)C1 (stereo not given)
  A = .	B = 82.6	C = 85.8	D = 115.2
CC1=CC(C)C(C2OCC(C)CO2)C(C)C1 (stereo not given)
  A = -41.5	B = 90.8	C = 87.4	D = .
O=c1c2cc(NC(=S)N3CCCC3)ccc2nc2n1CCCCC2
  A = .	B = 106.9	C = 93.0	D = 102.1

Three entries out of the list above, sorted by the value under GIV-Gai inh, high to low:
Molecule,GIV-Gai inh
Cc1cc(Oc2ccccc2)nc2ccc(O)cc12,107.6
COc1ccc(NC(=O)N2CCN(Cc3nc4cccnc4n3-c3cc(C)cc(C)c3)CC2)cc1OC,103.4
O=C1CC2(CCCC2)C(=O)N1c1ccc(Br)cc1,101.1

The order is random, and some 0.79% of all compounds hit somewhere here.
